Rango dissoc inh: prevents RanGTP from dissociating the Rango-importin beta complex; Potency, µM (series often up to 46.1 µM), for the others: top-dose activity change, negative = inhibition; AID 540253; 340,000 compounds, 0.071% hits; Biochemical FRET Rango-importin beta, RanGTP-induced dissociation; O95149+P62826; active means falling FRET ratio curve, often poorly fitted, with flat reads before Ran was added; inconclusive means other falling curves, or compound fluorescence or quenching; inactive means flat or rising ratio curve;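 further: potency means the concentration at half of the fitted maximal effect; % of control where 0% means no effect; nearly all actives have a fitted effect of over 45% in size; -100% = wells without RanGTP and RCC1; the record marks most hits as doubtful in a second field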
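Rango/importin beta premix (0.1/0.25 uM final), PBS + 1 mM DTT + 0.02% Tween-20 + 0.1% BSA; cpd 5 min RT; FRET pre-read; + RanGTP-RCC1 (0.6 uM Ran, 2 mM GTP, 0.2 uM RCC1); 45 min RT; FRET post-read, ex 430, em 486/530 nm.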
Rango complex inh: inhibitors of Rango-importin beta complex formation | 340,000 compounds, 0.031% hits | Rango CFP/YFP FRET sensor + importin beta, 45 min | Potency, µM (top dose mostly 92.2 µM), without a hit: at the top dose inhibition of complex formation; active = rising FRET ratio curve, often small or poorly fitted; inconclusive = mostly compound fluorescence or quenching in the first reads; inactive = flat curves in all reads;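 further: potency means the concentration at half of the fitted maximal effect; 0% = DMSO wells and 100% = buffer wells lacking importin beta; nearly all actives have a fitted effect of over 15% in size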
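FRET biosensor Rango (snurportin 1 IBB between N-terminal EYFP and C-terminal Cerulean), 50 nM in PBS/1 mM DTT/0.02% Tween-20/0.1% BSA, preincubated 5 min RT with compound; 0.125 microM importin beta added, 45 min RT, CFP/YFP FRET ratio read.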
GLA inh pH 4.5: alpha-galactosidase A (human) inhibition, pH 4.5; purified enzyme, 4-MU-alpha-Gal fluorescence, pH 4.5; 230,000 tested, under 10 active; activity change, negative = inhibition, % at 105 µM; P06280; inconclusive = small, poorly fitted or top-dose-only inhibition, or a rising curve; inactive = flat fitted curve, though single readings scatter; no compound was filed as active;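 further: 0% = full activity with enzyme and -100% = basal without enzyme; dose as in the result columns while the protocol names 77 µM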
Target sequence (P06280 whole entry, looked up): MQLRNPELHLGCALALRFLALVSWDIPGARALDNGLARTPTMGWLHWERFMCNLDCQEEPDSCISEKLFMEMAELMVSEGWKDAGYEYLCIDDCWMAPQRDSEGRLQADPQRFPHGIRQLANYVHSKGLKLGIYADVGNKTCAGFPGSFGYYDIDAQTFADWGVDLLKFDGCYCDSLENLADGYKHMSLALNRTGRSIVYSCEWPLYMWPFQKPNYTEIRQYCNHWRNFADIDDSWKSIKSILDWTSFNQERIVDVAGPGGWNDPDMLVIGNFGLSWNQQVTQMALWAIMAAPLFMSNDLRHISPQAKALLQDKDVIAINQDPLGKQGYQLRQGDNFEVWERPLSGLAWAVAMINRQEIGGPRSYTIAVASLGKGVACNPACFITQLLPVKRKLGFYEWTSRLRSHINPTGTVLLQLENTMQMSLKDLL
miR-21 FLuc: raises the signal of a miR-21 reporter. Potency, µM (titrated, usually from 38.3 µM), inactives show at the top dose reporter change, positive = more light. HeLa miR-21 FLuc reporter, luciferase, 48 h. 340,000 tested, under 10 active. AID 2288; active = well fitted rising curve with a large enough effect; inconclusive = small, poorly fitted or top-dose-only effect; inactive = no such curve, though single readings can be large or run the other way;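 further: % of control where 0% means no effect; miR-21 action dims this reporter so a rising signal means less miR-21 action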
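Using DMEM plus 10% FBS, HeLa miR-21-FLuc cells are incubated with test compounds (final up to about 40uM) for 48 hours; firefly luciferase signal is then imaged following reagent-mediated lysis.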
* marks the source's active call; other numbers are inactive results; ? = inconclusive; . = no result given. Not all compounds are listed; count on the stated rates, not on these rows.

Each structure is followed by: Rango dissoc inh | Rango complex inh | GLA inh pH 4.5 | miR-21 FLuc
- CSc1nnc(C(C)(C)C)c(=O)n1/N=C/c1ccccc1
 : -6.2% | 2.2% | 0.4 | -2.6%
- O=C(OCC#CCSc1nnc(-c2cccc3ccccc23)o1)c1ccc(F)cc1
 : -1.9% | -0.9% | . | .
- COC(=O)CN1C(=O)C2(OCCCO2)c2cc(Br)ccc21
 : 0.7% | -3.3% | 5.5 | 0.6%
- Cc1ccc2nc(CSc3nnc(Nc4ccccc4F)s3)cc(=O)n2c1
 : -1.5% | 1.2% | 6.4 | -1.3%
- CC(C)CN(C(=O)COC(=O)c1cc2c(s1)CCC2)C1CCS(=O)(=O)C1 (centres undefined)
 : -14.5% | ? | -2.8 | -4.6%
- C#CCOc1ccc(OC)cc1C(c1c(C)[nH][nH]c1=O)c1c(C)[nH][nH]c1=O
 : -10.9% | 3.4% | . | 0.5%
- Cc1cc(O)c2c(c1O)C(=O)[C@]13C(=C2O)C(=O)[C@@H]2[C@@H](O)[C@H]1[C@@H]1[C@H](O)[C@H]3C(=O)C3=C(O)c4c(O)cc(C)c(O)c4C(=O)[C@]312
 : ? | ? | . | .
- COCCCNC(=O)c1cccn2c(=O)c3cc4ccccc4cc3nc12
 : -9.3% | 12.5% | 3.8 | -40.2%
- CN(C(=O)COC(=O)COc1ccc2ccccc2c1)c1c(N)n(Cc2ccccc2)c(=O)[nH]c1=O
 : -18.4% | -4.6% | . | .
- O=C(Cc1ccc(-n2c(=S)[nH]c3ccccc3c2=O)cc1)N1CCC(N2CCCCC2)CC1
 : 1.1% | -0.9% | -6.1 | -8.1%
- CN(c1cccc(NC(=O)COc2ccccc2)c1)S(C)(=O)=O
 : 3.6% | -2.9% | -6.1 | -37.0%
- CCCn1nnnc1NCc1c(Cl)cccc1Cl
 : 6.4% | -1.0% | -4.1 | 1.7%
- NC(=O)c1ccsc1NC(=O)COC(=O)Cc1ccsc1
 : -12.3% | 0.1% | 2.7 | -6.9%
- Cc1cccc(NC(=O)CN2CCN(CC(=O)NCc3ccc(Cl)cc3Cl)CC2)c1C
 : -0.4% | -1.6% | . | .
- CCOc1ccc(N2C(=O)CC(N(CCc3ccc(OC)cc3)C(=O)/C=C/C(=O)O)C2=O)cc1 (centres undefined)
 : -11.8% | 1.3% | 8.0 | 0.4%
- C/C(=N\NC(=S)NC1CCCCC1)c1ccc(O)cc1
 : -16.8% | 0.7% | -7.1 | -33.2%
- c1ccc(Nc2ccccc2Nc2ccccn2)nc1
 : -11.5% | ? | -0.5 | -7.4%
- CCOc1ccc(OCCn2c(=S)[nH]c3ccccc32)cc1
 : 6.6% | 0.3% | . | 4.6%
- O=C(N/N=C/c1cccnc1)c1ccc2ccccc2c1O
 : -11.4% | 0.1% | . | -21.9%
- Cc1ccc2c(CC(=O)NC3CCCc4ccccc43)coc2c1 (centres undefined)
 : 14.4% | -2.1% | -2.8 | -16.4%
- COC(=O)NC1c2ccccc2Oc2ccccc21
 : 1.4% | 0.3% | . | 3.8%
- COc1ccc(OCC(O)CN2CCNCC2)cc1 (centres undefined)
 : -21.6% | ? | . | -15.5%
- Cc1noc(NS(=O)(=O)c2ccc(N/C=C\C(=O)c3cccs3)cc2)c1C
 : ? | ? | -4.5 | -42.2%
- CCCCCOc1ccc(NC(=O)CSc2cccc3cccnc23)cc1
 : 62.0% | 0.6% | 7.5 | 13.2%
- CCOC(=O)C1(CCOc2ccccc2)CCN(Cc2ccc(O)cc2)CC1
 : -6.6% | 5.9% | . | 13.6%
- CNc1nc(N)c([N+](=O)[O-])c(Nc2cccc(F)c2)n1
 : -9.4% | -1.2% | -4.7 | -8.8%
- CCOc1ccc(C2C=C(c3ccc(C)cc3)Nc3nnnn32)cc1 (centres undefined)
 : ? | ? | 2.4 | -8.0%
- COCCNC(=O)/C(C#N)=C/c1ccc(OCc2ccc(F)cc2)cc1
 : -6.6% | 0.1% | -0.9 | -37.9%
- COc1ccc(OCC(O)CNS(=O)(=O)c2cccs2)cc1 (centres undefined)
 : 9.1% | -5.1% | . | 0.0%
- COCCCNC(=O)CN1C(=O)/C(=C\c2ccc(C)cc2)Sc2ccccc21
 : -16.3% | ? | 5.0 | -21.4%

An excerpt from further up:
Each structure is followed by: Rango dissoc inh | Rango complex inh | GLA inh pH 4.5 | miR-21 FLuc
- COc1ccc(OCC(O)CNS(=O)(=O)c2cccs2)cc1 (centres undefined)
 : 9.1% | -5.1% | . | 0.0%
- COCCCNC(=O)CN1C(=O)/C(=C\c2ccc(C)cc2)Sc2ccccc21
 : -16.3% | ? | 5.0 | -21.4%

Other records:
Each structure is followed by: Rango dissoc inh | Rango complex inh | GLA inh pH 4.5 | miR-21 FLuc
- Cc1ccc(NC(=O)CSCC(=O)Nc2ncc3c(n2)CC(c2ccco2)CC3=O)cc1 (centres undefined)
 : -9.7% | 0.1% | 7.0 | -8.1%
- COc1ccc2nc(SCC(=O)NCC(F)(F)F)[nH]c2c1
 : 21.8% | -4.5% | 3.6 | -0.4%
- CCOC(=O)N1CCN(c2ncnc3c2oc2nc(C(C)C)c4c(c23)CCC4)CC1
 : 37.0% | -7.6% | 5.3 | -0.7%
- O=C(CCNC(=O)C1CCN(S(=O)(=O)c2ccccc2)CC1)NCc1ccncc1
 : -16.0% | -3.8% | . | -1.4%
- CCOC(=O)c1c(-c2ccccc2)cn2ccccc12
 : -7.7% | -1.9% | 6.5 | -8.8%
- O=C(c1ccc(Sc2ccccc2)c([N+](=O)[O-])c1)N1CCOCC1
 : -0.6% | 10.9% | . | -14.1%
- CN(NC(=O)C1CC(=O)N(c2ccccc2)C1)C1=NS(=O)(=O)c2ccccc21 (centres undefined)
 : 0.9% | -0.1% | -8.1 | 0.1%
- O=C(Nc1ccc(NC(=O)c2cccs2)cc1)c1cccs1
 : -16.3% | -1.3% | . | -70.2%
- CN/C(=C\[N+](=O)[O-])NCCSCc1csc(CN(C)C)n1
 : -19.6% | -2.4% | 2.0 | .
- Cc1cccc(N=[N+]([O-])c2cccc(C)n2)n1
 : -2.4% | -1.9% | . | .
- CCOc1ccccc1N1CCN(CC(=O)Nc2ccnn2C2CCCC2)CC1
 : 24.0% | 3.3% | . | .
- CCSc1cc(N2CC(C)OC(C)C2)nc(-c2ccccc2Cl)n1 (centres undefined)
 : -4.6% | 2.5% | -4.9 | -0.7%
- Cc1nc2ccccc2n1S(=O)(=O)c1ccc(S(=O)(=O)N2CCCCCC2)cc1
 : 7.3% | -4.1% | 3.5 | -3.2%
- CCC(C)NC(=O)CSc1nc2ccsc2c(=O)n1NC(=O)c1ccccc1 (centres undefined)
 : -3.2% | 1.0% | 7.7 | -38.8%
- CC(=O)n1c2ccccc2c2ccccc21
 : -12.6% | 1.0% | 3.3 | -0.3%

One compound at a time, from the list above.
CCSc1cc(N2CC(C)OC(C)C2)nc(-c2ccccc2Cl)n1 (centres undefined) across the screens: Rango dissoc inh: -4.6%; Rango complex inh: 2.5%; GLA inh pH 4.5: -4.9; miR-21 FLuc: -0.7%
CCC(C)NC(=O)CSc1nc2ccsc2c(=O)n1NC(=O)c1ccccc1 (centres undefined) across the screens: Rango dissoc inh: -3.2%; Rango complex inh: 1.0%; GLA inh pH 4.5: 7.7; miR-21 FLuc: -38.8%

Later entries.
Each structure is followed by: Rango dissoc inh | Rango complex inh | GLA inh pH 4.5 | miR-21 FLuc
- Cc1ccc(S(=O)(=O)N[C@H](C(=O)N2CCC3(O)CCCCC3C2)c2ccccc2)cc1 (some centres undefined)
 : 0.4% | 2.1% | 2.6 | -5.4%
- Cc1cccc(-c2cc(C(=O)N/N=C/c3cccnc3)c3ccccc3n2)c1
 : 2.3% | -0.3% | . | .
- C/C(=N\NC(=O)c1ccc(N2CCCC2=O)cc1)c1ccncc1
 : 7.1% | 2.5% | -5.1 | -4.0%
- Cn1ncc(Cl)c1C(=O)N1CCN(S(=O)(=O)c2cccs2)CC1
 : 0.6% | -2.9% | . | -3.4%
- CCOc1ccccc1C(=O)OCC(=O)Nc1cccc(S(=O)(=O)NC2=NCCCCC2)c1
 : -21.1% | -0.6% | . | .
- CC(=O)Cc1cc(=O)c2c(C)cc(O)c(C3OC(CO)C(O)C(O)C3O)c2o1 (centres undefined)
 : -9.2% | ? | -2.2 | -4.8%
- CCc1ccc2nc3c(c(C(=O)O)c2c1)CCC3
 : -16.6% | 2.8% | 5.3 | -18.3%
- Cn1cc(SCC(=O)NCc2ccc(F)cc2)c2ccccc21
 : -16.2% | -0.8% | 9.1 | -1.4%
- NC(=O)c1ncn([C@@H]2O[C@H](CNS(=O)(=O)c3cc(S(=O)(=O)c4ccccc4)cs3)[C@@H](O)[C@H]2O)n1
 : -17.3% | 1.6% | . | .
- CCOC(=O)c1ccc(NS(=O)(=O)c2c(C)n[nH]c2C)cc1
 : 0.2% | -4.4% | . | .
- Cc1ccc(S(=O)(=O)/N=C(\c2ccc(F)cc2)n2c(C)nc3ccccc32)cc1
 : -0.6% | -0.2% | 7.9 | -16.9%
- CC(=O)OC[C@H]1O[C@H](CCO/N=C(\C)CCN2CCCc3nc(C)c(C)cc32)C=C[C@@H]1OC(C)=O
 : . | . | -5.5 | -1.4%
- O=C(CSc1nc2ccccc2[nH]1)Nc1ccc2c(c1)CCC2
 : 0.2% | 2.8% | 11.5 | -13.9%
- Nc1cc(OCC(F)(F)F)cc(OCC(F)(F)F)c1
 : -3.1% | 0.4% | -7.8 | -2.0%
- Cc1cccc(N2C(=O)c3ccc(C(=O)Nc4c[nH]c(=O)[nH]c4=O)cc3C2=O)c1
 : 7.8% | 2.0% | 8.4 | 0.8%

Single values from above:
CCOC(=O)c1ccc(NS(=O)(=O)c2c(C)n[nH]c2C)cc1 in Rango complex inh = -4.4%
CCc1ccc2nc3c(c(C(=O)O)c2c1)CCC3 in Rango dissoc inh = -16.6%
CCOc1ccccc1C(=O)OCC(=O)Nc1cccc(S(=O)(=O)NC2=NCCCCC2)c1 in Rango dissoc inh = -21.1%

(listing goes on)
Each structure is followed by: Rango dissoc inh | Rango complex inh | GLA inh pH 4.5 | miR-21 FLuc
- O=C(c1ccc([N+](=O)[O-])cc1)N1CCSC1c1ccccc1Cl (centres undefined)
 : 2.1% | 6.8% | -12.9 | -6.7%
- CC(C)N(C(=O)COC(=O)[C@@H]1CC(O)CN1S(=O)(=O)c1ccc(C(C)(C)C)cc1)C(C)C (some centres undefined)
 : -5.5% | -0.4% | -1.5 | -3.3%
- CCC1=Nc2cc(C(=O)NCCN3CCOCC3)ccc2Sc2ccc(C)cc21
 : 1.9% | 0.0% | . | -3.8%
- CCC(C(=O)NC1CCCC1)N(Cc1cccs1)C(=O)Cn1nnc(-c2ccc(OC)c(OC)c2)n1 (centres undefined)
 : -2.7% | -0.2% | -12.0 | -4.5%
- COc1ccc(C(=O)CSc2cc(C)nc3nc(C)nn23)cc1OC
 : -9.3% | -5.9% | 2.6 | -17.7%
- Cc1ccc(C(=O)CCC(=O)OCC(=O)N2c3ccccc3NC(=O)C2(C)C)cc1
 : -2.9% | -0.2% | . | .
- CCOC(=O)N1CCN(C(=O)Nc2ccc3nc(C)c(C)nc3c2)CC1
 : -5.7% | 1.9% | 17.5 | 1.5%
- CC1(C)CC(=O)C=C(c2cccc(Br)c2)C1
 : 0.2% | 4.8% | . | .
- CC(Oc1cccc(Cl)c1)C(=O)Nc1ccc([N+](=O)[O-])cn1 (centres undefined)
 : -0.2% | -3.5% | -0.3 | -9.3%
- COC(=O)c1ccc(CSc2ncnc3c2sc2nc(N4CCOCC4)c4c(c23)CCCC4)o1
 : 1.7% | -3.5% | . | .
- CCCCC[n+]1ccn(-c2nc3ccccc3nc2[N-]S(=O)(=O)c2ccc(C)cc2)c1
 : ? | ? | -8.0 | -2.6%
- COc1ccccc1N1CCN(C(=O)c2cc3c(s2)CCC3)CC1
 : -12.1% | -2.4% | 2.8 | -9.6%

Screens deposited in PubChem by National Center for Advancing Translational Sciences (NCATS).
